Compound activity from PubChem BioAssay.
TRPML1 blocker = blocks the human TRPML1 channel; TRPML1-inducible cells, Ca2+ dye fluorescence, FDSS; hits give low values; inhibition of EC80 agonist-evoked calcium signal; Q9GZU1; activity change, negative = inhibition, % (test concentration not listed); actives 0.02% (n = 390,000); in the data active means activity change below about -50%; inconclusive means about -30% to -50%; inactive means above about -30%;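 also: stimulus is agonist 54-4 at its EC80 concentration; % is scaled to controls: 0 for no effect and ±100 for the full control effect; compound concentration not given in the record; the text of the record puts the active cut at -80%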
Target sequence (Q9GZU1 whole entry, looked up): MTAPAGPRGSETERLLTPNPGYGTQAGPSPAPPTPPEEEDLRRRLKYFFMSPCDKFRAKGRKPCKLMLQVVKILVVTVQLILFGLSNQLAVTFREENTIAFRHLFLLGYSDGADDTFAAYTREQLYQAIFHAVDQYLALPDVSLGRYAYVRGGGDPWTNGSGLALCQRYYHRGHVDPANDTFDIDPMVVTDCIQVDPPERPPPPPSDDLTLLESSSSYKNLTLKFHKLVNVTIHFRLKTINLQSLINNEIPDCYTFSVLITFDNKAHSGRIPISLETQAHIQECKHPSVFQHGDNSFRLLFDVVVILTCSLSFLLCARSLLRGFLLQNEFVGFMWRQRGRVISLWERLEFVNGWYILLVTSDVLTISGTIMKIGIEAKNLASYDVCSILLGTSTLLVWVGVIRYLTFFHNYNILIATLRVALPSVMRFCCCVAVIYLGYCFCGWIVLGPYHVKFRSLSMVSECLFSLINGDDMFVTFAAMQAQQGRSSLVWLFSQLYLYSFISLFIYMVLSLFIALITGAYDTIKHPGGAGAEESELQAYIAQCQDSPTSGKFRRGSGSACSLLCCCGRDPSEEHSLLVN
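Tet-induced TRPML1-DL cells loaded with Ca8 no-wash calcium dye were read kinetically on FDSS. Compound addition was followed by EC80 agonist 54-4 (4 uM final); inhibition was read over 110 s.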
TRPML1 agonist = activates the human TRPML1 channel; Q9GZU1; activation, % (no concentration beside the values); AID 624414; TRPML1-expressing cells, Ca2+ dye fluorescence, FDSS; host cell line not named in the record; reference of the full effect not given here; actives 0.12% (n = 410,000); in the data active = activation above about 50%; inconclusive = about 30% to 50%; inactive = below about 30%; also: 0% is about no effect; the text of the record puts the active cut at 80%
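Tetracycline-induced TRPML1-DL cells are seeded and incubated overnight before loading with a no-wash Ca2+ dye and quencher. Agonist activity is taken from the 110 s fluorescence read following compound pin-transfer on an FDSS, before EC80 54-4 challenge.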
Numbers without * were called inactive. This is a subset (hit frequency here may not be typical).

The line under a structure holds: TRPML1 agonist	TRPML1 blocker
Cc1ccc(C)c(Oc2nc3c(c(=O)n(C)c(=O)n3C)n2Cc2ccccc2)c1
→ -0.5	-11.8
O=C(NCc1ccccc1Cl)c1cc2ccccc2o1
→ 0.0	-12.5
CCc1nnc(SCc2cccc(Cl)c2)c2cc3sccc3n12
→ 3.1	35.6
COc1ccc(C)cc1NC(=O)c1oc2ccc(S(=O)(=O)N3CCCCC3)cc2c1C
→ -0.4	-15.0
CCN(Cc1ccccc1)C(=O)c1cnn(-c2ccc(F)cc2)c1-n1cccc1
→ 2.9	14.9
Cc1ccc(N(Cc2cccs2)C(=O)c2ccco2)cc1
→ 2.4	38.6
Cn1cc(S(=O)(=O)N2CCCCCC2)cc1C(=O)N1CCN(c2cccc(C(F)(F)F)c2)CC1
→ 0.0	2.4
Cc1ccc(C)c(CN2C(=O)C(=O)c3ccccc32)c1
→ 3.4	11.5
CCCNC(=O)N1[C@H](c2cccs2)[C@@H](C)C(=O)[C@@H](C)[C@@H]1c1cccs1
→ -0.8	-20.5
COc1ccccc1Nc1nc(-c2ccc(F)cc2)c2c(n1)-c1ccccc1OC2
→ 1.9	-5.5
COc1ccc(NC(=O)N(Cc2nnc3n2CCCCC3)c2ccc(OC)c(Cl)c2)cc1
→ 1.4	0.8
COc1cccc(C(=O)N(Cc2cccc(Cl)c2)Cc2ccco2)c1
→ 2.0	-1.0
CNS(=O)(=O)c1cn(CC(=O)Nc2ccc(F)cc2F)cc1S(=O)(=O)NC
→ 0.9	10.5
CCOc1ccc(N(CC)S(=O)(=O)N2CCCC(C(=O)NCc3ccccc3OCC)C2)cc1 (stereo not given)
→ 1.0	-19.8
Cc1ccc2c(=O)c(C(=O)c3ccccc3)cn(CC(=O)Nc3ccc(C)c(Cl)c3)c2n1
→ -0.4	13.4
CCCOc1ccc(NC(=O)CC2C(=O)N(c3cccc(C)c3)C(=O)N2CCc2ccncc2)cc1 (stereo not given)
→ -0.4	0.3
Cc1ccc(C)c(NC(=O)Cn2c(=O)n(-c3ccccc3C)c(=O)c3c2c2cc(C)ccc2n3C)c1
→ 1.4	3.9
O=C(CS(=O)(=O)c1cccc2nsnc12)Nc1ccc(F)cc1F
→ 3.1	-2.0
Cc1ccc(NC(=O)C2CCN(C(=O)c3sc4nc[nH]c(=O)c4c3C)CC2)cc1F
→ 0.8	2.9
CCC(=O)N1CCc2cc(Br)cc(S(=O)(=O)N3CCCC(C(=O)Nc4cc(C)ccc4OC)C3)c21 (stereo not given)
→ -0.6	14.7
Cc1ccc2nc(-c3ccc(NC(=O)c4ccccc4S(C)(=O)=O)cc3)sc2c1
→ 0.3	15.3
Cc1ccc(Nc2c(-c3ccc(C)cc3)nc3ccc(C)cn23)cc1
→ 0.0	3.9
O=c1[nH]c(=O)n(C2CCCCC2)c(O)c1C1=Nc2ccccc2SC(c2ccccc2)C1 (stereo not given)
→ 2.7	-19.0
CCc1ccccc1NC(=O)C1CCN(S(=O)(=O)c2ccc3[nH]c(=O)ccc3c2)CC1
→ 1.4	3.4
COc1ccc(NC(=O)CCCc2nc(-c3ccco3)no2)c(OC)c1
→ 1.5	12.8
CCOC(=O)C1CCN(S(=O)(=O)c2cc(-c3onc(C)c3C)ccc2C)CC1
→ 1.9	13.0
CCc1ccccc1NC(=O)CC1Sc2ccc(C(F)(F)F)cc2NC1=O (stereo not given)
→ 1.1	12.7
Cn1c(=O)n(CCc2ccccc2)c(=O)c2c1nc1n2CCN1c1ccc(Cl)cc1
→ -0.4	-6.8
CCC1CC=CC2C1C(=O)N(Cc1ccccc1)C2c1ccoc1 (stereo not given)
→ 3.2	22.3
CCOC(=O)c1ccc(NC(=O)CSc2nc(C)c(Cc3ccccc3)c(=O)[nH]2)cc1
→ 1.5	20.9

Two records drawn at random from those above, as already listed:
The line under a structure holds: TRPML1 agonist	TRPML1 blocker
CCc1ccccc1NC(=O)CC1Sc2ccc(C(F)(F)F)cc2NC1=O (stereo not given)
→ 1.1	12.7
O=c1[nH]c(=O)n(C2CCCCC2)c(O)c1C1=Nc2ccccc2SC(c2ccccc2)C1 (stereo not given)
→ 2.7	-19.0

The results go on.
The line under a structure holds: TRPML1 agonist	TRPML1 blocker
CCOc1ccc(CCNC(=O)CCn2c(=O)c3cccn3c3ccc(F)cc32)cc1
→ 2.1	-29.4
Cn1cc(S(=O)(=O)N2CCOCC2)cc1C(=O)Nc1cccc(C#N)c1
→ -0.3	11.2
FC(F)(F)c1ccc(-c2noc(-c3ccccc3Br)n2)cc1
→ 0.4	-4.9
Cc1c2cnn(-c3ccccc3)c(=O)c2c(C)n1C(C)C(=O)Nc1ccccc1C(F)(F)F (stereo not given)
→ -0.4	-9.7
COc1ccccc1CNc1nccn(-c2ccc(F)cc2)c1=O
→ 0.6	-1.8
Cc1ccc(OCCn2c(COc3ccc(Cl)cc3)nc3ccccc32)cc1
→ 1.2	3.6
CCc1ccc(NC(=O)N2CC=C(c3c[nH]c4ccccc34)CC2)cc1
→ -0.1	17.2
CCOCCCn1c(=N)c(C(=O)NC2CCCC2)cc2c(=O)n3cc(C)ccc3nc21
→ 0.0	-10.7
COc1ccc(CNS(=O)(=O)c2ccc3c(c2)C(C)(C)C(=O)N3C)cc1OC
→ -1.0	-4.4
CCNc1nc(N)nc(Oc2ccc(OCC(=O)OC)nn2)n1
→ 1.1	13.3

Compounds listed so far containing an aryl thioether with sulfur outside any ring:
The line under a structure holds: TRPML1 agonist	TRPML1 blocker
CCc1nnc(SCc2cccc(Cl)c2)c2cc3sccc3n12
→ 3.1	35.6
CCOC(=O)c1ccc(NC(=O)CSc2nc(C)c(Cc3ccccc3)c(=O)[nH]2)cc1
→ 1.5	20.9

The results go on:
The line under a structure holds: TRPML1 agonist	TRPML1 blocker
CCc1ccccc1NC(=O)Cn1c(=O)oc2ccccc21
→ 0.5	-5.8
Cc1csc2nc(COC(=O)c3cccc(NC(=O)COc4ccccc4Cl)c3)cc(=O)n12
→ 2.3	7.7
Cc1ccc(S(=O)(=O)c2cn(CC(=O)Nc3ccc(Cl)cc3)c3ccc(F)cc3c2=O)cc1C
→ 2.5	-7.9
COc1cc2nc(SCC(=O)Nc3ccccc3F)n3nc(-c4ccccc4)nc3c2cc1OC
→ -0.3	-10.5
Cc1cc(C)c2c(-n3cccc3)c(C(=O)NCc3cccc(F)c3)sc2n1
→ 1.1	-2.4
CCOc1ccc(NC(=O)c2c(Nc3ccccc3C)sc(C(=O)c3ccc(Cl)cc3)c2N)cc1
→ 0.4	-18.9
Cc1ccc(CNC(=O)C2CCN(S(=O)(=O)c3ccc4c(c3)CCCN4C(=O)C3CCC3)CC2)cc1
→ 0.1	-18.0
CC(=O)N1CCCc2cc(S(=O)(=O)N3CCC(N(C)C(C)C)CC3)ccc21
→ -0.1	-16.3
COc1ccccc1NC(=O)c1cc(S(=O)(=O)NCCc2ccccc2)ccc1F
→ 3.1	18.9
CCCOc1ccc(C2C(=O)N(C3CCCCCC3)CC(=O)N2C(C)C)cc1OC (stereo not given)
→ -0.7	-4.6
Cc1ccc(NC(=O)Cn2c(=O)nc(-c3ccccc3F)c3cc(Cl)ccc32)c(Br)c1
→ -0.7	17.5
CCOc1ccc(CNC(=O)c2cc3c(=O)n(Cc4cccs4)ccc3nc2C)cc1
→ 0.5	-6.2
CSc1nc(Nc2ccc(F)cc2)cc(-c2ccccc2)n1
→ 0.7	2.0
O=C(NC1CC1)c1ccc(Cn2c(SCc3ccc(F)cc3)nc3cccnc32)cc1
→ 0.6	-8.9
COc1ccc(CCNC(=O)C2CCCN(S(=O)(=O)c3ccc4c(c3)oc(=O)n4C)C2)cc1OC (stereo not given)
→ -0.6	-29.4
CCOc1ccccc1NC(=O)c1c(NCc2ccc(C)o2)sc2c1CCCCC2
→ -0.1	42.5
CCOC(=O)Cn1c(=O)n(CC2CCCO2)c2nc(-c3cccc(C)c3)nc(C(N)=O)c21 (stereo not given)
→ 5.5	2.3
O=C(CN1C(=O)C2(SCC(=O)N2c2ccc(F)c(F)c2)c2ccccc21)Nc1ccccc1F (stereo not given)
→ 1.6	-4.1
COC(=O)c1c(-c2cccs2)csc1NC(=O)COc1ccccc1
→ 1.3	47.2
CC(C)(Oc1ccc(Cl)cc1)C(=O)Nc1nc2ccc(S(C)(=O)=O)cc2s1
→ -0.3	-3.2
COc1ccc(OC)c(NC(=O)c2ccc(-c3nc(COc4ccccc4)c(C)o3)cc2)c1
→ -0.2	-3.4
Cc1ccc(NC(=O)c2cc(S(=O)(=O)N3CCC(C)CC3)cn2C)cc1Cl
→ 3.1	-6.2
CCOC(=O)c1cccc(NC(=O)c2nn(-c3ccc(OC)cc3)c(=O)c3c2c2ccccc2n3C)c1
→ 2.1	-27.2
CC(C)NC(=O)C1CCN(C(=O)c2cc3sccc3n2Cc2ccc(Cl)cc2)CC1
→ 0.7	11.0
CCCCc1ccc(NC(=O)c2ccc3c(c2)CCN3S(=O)(=O)CC)cc1
→ 2.3	-15.1
Cc1ccccc1-c1nnc(SCC(=O)N2CCCCC2)o1
→ -0.8	-9.9
COc1ccc(-c2nc(C)c(CCNC(=O)c3cccc(C)c3)s2)cc1OC
→ 2.7	-2.7
COc1ccc(OC)c(-c2noc(N3CCN(c4cc(Cl)ccc4C)CC3)n2)c1
→ -0.5	19.9
COc1ccc(-c2cc(-c3nc(-c4cc(OC)c(OC)c(OC)c4)no3)[nH]n2)c(OC)c1
→ 0.9	19.3
CCOc1ccccc1NC(=O)C(=O)c1cc(C)n(-c2cccc(C)c2C)c1C
→ 2.1	-11.6
Cc1ccc(CNC(=O)CSc2n[nH]c(-c3ccc(F)cc3)n2)cc1
→ 0.1	-8.0
CC(C)CCNC(=O)N1CCN(S(=O)(=O)c2ccc3c(ccn3C)c2)CC1
→ 2.0	7.9
CCC(C(=O)Nc1ccc(C(=O)OC)cc1)n1c(=O)c(-c2ccccc2NC(C)=O)nc2ccccc21 (stereo not given)
→ 2.3	23.6
CC1CCN(Cc2c(O)ccc3c(=O)c(-c4ccc(Cl)cc4)c(C(F)(F)F)oc23)CC1
→ -0.4	-12.2
COc1ccccc1NC(=O)Cn1cnc2ccc(S(=O)(=O)N3CCC(C)CC3)cc2c1=O
→ 0.3	-7.8
CCc1ccc(N2CCn3c2nc2c3c(=O)n(C/C=C/c3ccccc3)c(=O)n2C)cc1
→ 0.0	11.9
Cc1ccc2ccc3cc(C(=O)Nc4ccc(C)c(F)c4)nc3c2[nH]1
→ 0.8	23.3
Cc1cc(NS(=O)(=O)c2ccc3nc(-c4ccccc4)[nH]c3c2)ccc1Br
→ 2.4	30.6
Cc1cc(NC(=O)Cn2c(=O)oc3cc(S(=O)(=O)N4CCCC4)ccc32)ccc1Br
→ -0.7	17.3
COc1cc(C(=O)Nc2cc3c(cc2C)n(C)c(=O)c(=O)n3C)cc(OC)c1OC
→ 0.0	-4.9
Nc1c(C(=O)Nc2ccc(C(F)(F)F)cc2)sc2nc(-c3cccs3)ccc12
→ 0.0	3.8
O=C(NCc1ccc(Cl)cc1)c1ccc(NC(=O)N2CC3CCCN3c3ccccc32)cc1 (stereo not given)
→ -0.2	5.7
COc1ccccc1NC(=O)CN1C(=O)C(c2ccc(F)cc2)=NC12CCCCC2
→ 0.4	-2.0
O=C(NCCCO)C(=O)Nc1c2c(nn1-c1ccc(F)cc1)CSC2
→ 1.8	12.5
O=C(CSc1nc2c([nH]c3ccccc32)c(=O)n1-c1ccccc1)Nc1ccc2c(c1)OCO2
→ 2.3	-5.8
COc1cccc(-n2cc(C(=O)OCc3ccc(Cl)cc3)c3ccccc3c2=O)c1
→ 2.2	18.4
Cc1ccccc1OCc1ccc(-c2nc(C#N)c(N3CCN(c4ccccc4)CC3)o2)o1
→ -0.7	19.1
CCC(C)NC(=O)c1sc2nc(C)c(C(=O)Nc3ccc(C)cc3C)c(-c3ccccc3Cl)c2c1N (stereo not given)
→ 0.4	25.4
Cn1c(=O)[nH]c(=O)c2c1nc(NCCc1ccccc1)n2Cc1ccc(F)cc1
→ -0.8	-11.6
COc1ccccc1C(=O)Nc1sc(Nc2ccccc2)nc1C(N)=O
→ 0.4	-0.9

The list goes on:
The line under a structure holds: TRPML1 agonist	TRPML1 blocker
Cc1ccc(C)c(NC(=O)CN2C(=O)C3(SCC(=O)N3c3ccc(C)c(C)c3)c3ccccc32)c1 (stereo not given)
→ 2.3	15.0
Cc1oc(-c2ccccc2)nc1CNS(=O)(=O)c1ccc(Cl)cc1
→ 3.4	-0.6
CN(Cc1ccccc1)Cc1c(O)ccc2c(=O)c(-c3ccccc3)c(C(F)(F)F)oc12
→ 0.1	-27.5
CCSc1nnc(NC(=O)c2cc(=O)c3cc(C)ccc3o2)s1
→ -0.9	10.3
CC(=O)OCC(NC(=O)C(COCc1ccccc1)NC(=O)OC(C)(C)C)C1OC(n2ccc(=O)[nH]c2=O)C(OC(C)=O)C1OC(C)=O (stereo not given)
→ 0.0	-9.2
COc1ccccc1OC(C)C(=O)Nc1ccc(-c2nc3ccccc3s2)cc1 (stereo not given)
→ -0.5	-9.0
CNC(=O)c1c(NC(=O)c2ccc(S(=O)(=O)N3CCCCC3)cc2)sc2c1CCC2
→ -0.2	0.4
COCCCNC(=O)c1c(NC(=O)Cc2coc3cc(C)cc(C)c23)sc2c1CCCC2
→ 0.2	-13.8
CC1CCN(S(=O)(=O)c2ccc3c(c2)oc(=O)n3CC(=O)NCc2ccc(F)cc2)CC1
→ 20.0	-22.6
CCc1c(C)sc2c1CCN(Cc1ccccc1C#N)C2c1ccccc1 (stereo not given)
→ -0.7	-4.1
Cc1ccc(CNC(=O)c2cc3sccc3n2Cc2ccc(F)cc2)cc1
→ 0.3	-11.0
CCN(C(=O)c1ccc(C(=O)N(CC)c2ccccc2C)cc1)c1ccccc1C
→ -0.8	3.1
